NPYLR7 ag = activates Aedes aegypti NPYLR7 receptor; HEK293T NPYLR7/Galpha15, GCaMP6s calcium fluorescence; activation, % at 10 µM; 0.15% of 270,000 active; AID 1259423; in the data active = activation above about 40%;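 also: 0% = vehicle and 100% = reference agonist at the receptor; some compounds past the cut are filed as inactive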
NPYLR7 ag max-min = second read-out of NPYLR7 ag, no call of its own (marks repeat the call); activation, %; measured here: Max-Min RFU normalised activation; some inactives read as strong as hits;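 span of the calcium signal over five minutes; 0% = vehicle and 100% = native peptide agonist; compound fluorescence can raise it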
Numbers without * were called inactive; & = joins results of further samples.

How did COCCNC(=O)C(NC(=O)c1cccs1)C1CCN(C(=O)Cc2ccccc2)CC1 (stereo not drawn) do in these assays?
NPYLR7 ag: 18; NPYLR7 ag max-min: 22

What do the screens show for `CCc1cc(S(=O)(=O)NCc2ccco2)ccc1OC`?
NPYLR7 ag: 3; NPYLR7 ag max-min: 7

What do the screens show for `Cc1cccc(NC(=O)N2CCCC(CNC(=O)c3ccccc3Cl)C2)c1C` (stereo not drawn)?
NPYLR7 ag: 1&-1; NPYLR7 ag max-min: 0&-6

How did Cc1cc(C)n(C(C)c2n[nH]c(Cc3ccccc3)n2)n1 (stereo not drawn) do in these assays?
NPYLR7 ag: 4; NPYLR7 ag max-min: 3

What do the screens show for `O=S(=O)(Nc1ccc2nc(-c3cccc(C(F)(F)F)c3)nn2c1)C1CC1`?
NPYLR7 ag: 13; NPYLR7 ag max-min: 3

What do the screens show for `Cc1cc(C)c2c(n1)sc1c(N3CCOCC3)ncnc12`?
NPYLR7 ag: 0; NPYLR7 ag max-min: -5

How did COc1cc(CNC(=O)c2cc(F)cc(F)c2)ccn1 do in these assays?
NPYLR7 ag: 8; NPYLR7 ag max-min: 8

What do the screens show for `COc1ccc(Nc2nc(N)c([N+](=O)[O-])c(N3CCC(C)CC3)n2)cc1`?
NPYLR7 ag: 7; NPYLR7 ag max-min: 4

What do the screens show for `Cc1cc2nc(CSc3nc4sc5c(c4c(=O)n3C)CCCC5)cc(=O)n2o1`?
NPYLR7 ag: 8; NPYLR7 ag max-min: 9

Results for CC(C)COc1nc(-c2ccccc2F)n(-c2ccc(NC(=O)c3cccc([N+](=O)[O-])c3)cc2)n1 ?
NPYLR7 ag: 14; NPYLR7 ag max-min: 20

What do the screens show for `Cc1nonc1OCCCNc1ccc([N+](=O)[O-])cc1`?
NPYLR7 ag: -9; NPYLR7 ag max-min: -15

How did O=C(CCOc1ccccc1)N1CC[C@H]2[C@H](CCCN2C(=O)Cc2ccc(F)c(F)c2F)C1 do in these assays?
NPYLR7 ag: 27; NPYLR7 ag max-min: 11

Results for CC(C)C(C)(C#N)NC(=O)CSc1nnc(C(F)(F)F)n1C (stereo not drawn) ?
NPYLR7 ag: 0; NPYLR7 ag max-min: 18

Results for COc1ccc(-c2cc(-n3cccn3)ncn2)c(-n2cccn2)c1 ?
NPYLR7 ag: -3; NPYLR7 ag max-min: -19

What do the screens show for `CC(C)n1c(CN2CCN(c3ccccc3)CC2)nc2c1c(=O)n(C)c(=O)n2C`?
NPYLR7 ag: -1; NPYLR7 ag max-min: -4

How did O=C(C1CCCO1)N1CCOc2c(O)cc(-c3csc4ccccc34)cc2C1 (stereo not drawn) do in these assays?
NPYLR7 ag: 11; NPYLR7 ag max-min: 4

Results for COc1ccccc1/C=C/C=C1N=C(/C=C/c2ccccc2)OC/1=O ?
NPYLR7 ag: -8; NPYLR7 ag max-min: -4

How did COCc1nc(C)c(CNC(=O)CC2CCc3ccccc32)s1 (stereo not drawn) do in these assays?
NPYLR7 ag: -4; NPYLR7 ag max-min: -5

How did CCc1nn(Cc2ccccc2)c(CC)c1C(=O)N(C)Cc1ccccc1 do in these assays?
NPYLR7 ag: 25; NPYLR7 ag max-min: 20

How did Cc1cccc(C)c1C(=O)N1CC[C@@](C)(O)[C@@H](Cc2ccccc2)C1 do in these assays?
NPYLR7 ag: 2; NPYLR7 ag max-min: 0

What do the screens show for `CCOc1nn(CC)cc1-c1nnc(SCc2cccnc2)n1C`?
NPYLR7 ag: -2; NPYLR7 ag max-min: -1

How did OCC1(Cc2cccc(C(F)(F)F)c2)CCN(Cc2ccc3nonc3c2)CC1 do in these assays?
NPYLR7 ag: 2; NPYLR7 ag max-min: -1

How did COc1cc(CNC(=O)NCc2ccc3c(c2)OCCO3)cc(OC)c1OC do in these assays?
NPYLR7 ag: 7; NPYLR7 ag max-min: 7

Results for COCCn1c(=O)c2c(nc3n(-c4ccc(OC)cc4)c(C)c(C)n23)n(C)c1=O ?
NPYLR7 ag: 5; NPYLR7 ag max-min: 1

Results for O=S1(=O)CCC(n2nc(-c3ccccc3)cc2NS(=O)(=O)c2ccccc2)C1 (stereo not drawn) ?
NPYLR7 ag: 0; NPYLR7 ag max-min: -2

Results for C=CCN(Cc1ccccc1C)C(=O)CCC1CCCN(C)C1 (stereo not drawn) ?
NPYLR7 ag: 8; NPYLR7 ag max-min: 9

Results for C=CCCC(O)(CCC=C)c1ccc(CN(Cc2ccccc2)C2CC2)o1 ?
NPYLR7 ag: -2; NPYLR7 ag max-min: 2

What do the screens show for `COCCN1C(=O)N(C2Cc3ccccc3C2)C(=O)C12CCN(Cc1cc3ccccc3o1)CC2`?
NPYLR7 ag: 2; NPYLR7 ag max-min: -5

How did CC(=O)Nc1cccc(CN2CCN(C(C#N)c3ccccc3)CC2)c1 (stereo not drawn) do in these assays?
NPYLR7 ag: -21; NPYLR7 ag max-min: -24

Results for O=C(NCc1cn2ccccc2n1)C(=O)Nc1cc(Cl)ccc1F ?
NPYLR7 ag: 3; NPYLR7 ag max-min: 2

Results for Cn1ccn2ncc(C(=O)O)c12 ?
NPYLR7 ag: 1; NPYLR7 ag max-min: 2

What do the screens show for `Cc1cccnc1CN1CCN(c2ccnc(C(=O)NC3CC3)c2)CC1`?
NPYLR7 ag: 0; NPYLR7 ag max-min: 4

What do the screens show for `CN1C(=O)c2cc(NS(=O)(=O)C3CCCCC3)ccc2Oc2ccccc21`?
NPYLR7 ag: 5; NPYLR7 ag max-min: 3

What do the screens show for `CN1CCN(n2c3c(c(SCC(=O)NCc4ccco4)nc2=O)CCCC3)CC1`?
NPYLR7 ag: -3; NPYLR7 ag max-min: -8

What do the screens show for `NC(=S)N/N=c1\oc2ccccc2cc1-c1nc2ccccc2[nH]1`?
NPYLR7 ag: -5; NPYLR7 ag max-min: -12

Results for O=C(NCCc1c[nH]c2ccccc12)c1cccnc1Nc1cccc(C(F)(F)F)c1 ?
NPYLR7 ag: -7; NPYLR7 ag max-min: -7

How did CC(=O)Nc1ccc(NC(=S)NC(NC(=O)/C=C/c2ccccc2)C(Cl)(Cl)Cl)cc1 (stereo not drawn) do in these assays?
NPYLR7 ag: 0; NPYLR7 ag max-min: -3

What do the screens show for `CCOC(C)C(=O)Nc1[nH]ncc1-c1cccc(Cl)c1` (stereo not drawn)?
NPYLR7 ag: -9; NPYLR7 ag max-min: -8

Results for CC(C)=CCC/C(C)=C/C(=O)N1CCC(O)(Cc2ccccc2)CC1 ?
NPYLR7 ag: -8; NPYLR7 ag max-min: -15

What do the screens show for `COc1ccc(Br)cc1S(=O)(=O)NCCSC1Sc2ccccc2NC1=O` (stereo not drawn)?
NPYLR7 ag: -6; NPYLR7 ag max-min: -15

Results for Clc1ccc(-c2c[n+]3c(n2-c2ccccc2)SCC3)cc1 ?
NPYLR7 ag: 5; NPYLR7 ag max-min: 3

Results for C=CCO[C@H]1[C@H](NC(=O)COC)c2ccccc2C12CCN(C(=O)c1ccccc1SC)CC2 ?
NPYLR7 ag: -9; NPYLR7 ag max-min: -9

How did CS(=O)(=O)c1ccc(CN2CCCC3(C2)C(=O)Nc2ccccc23)cc1 (stereo not drawn) do in these assays?
NPYLR7 ag: -5; NPYLR7 ag max-min: -6

What do the screens show for `Cc1ccc(C)c(C=Cc2noc(C)c2[N+](=O)[O-])c1`?
NPYLR7 ag: 2; NPYLR7 ag max-min: 1

How did CN(C)c1ccc(S(=O)(=O)N2CCCCC2)cc1NC(=O)C1COc2ccccc2O1 (stereo not drawn) do in these assays?
NPYLR7 ag: 2; NPYLR7 ag max-min: 2

How did O=C(C1CCCC1)N(Cc1ccc(C(F)(F)F)cc1)CC1CC(c2cccc(F)c2)=NO1 (stereo not drawn) do in these assays?
NPYLR7 ag: 6; NPYLR7 ag max-min: 14

What do the screens show for `CCC(=O)N1CCCC1c1nc(CC(C)C)nn1-c1ccccc1F` (stereo not drawn)?
NPYLR7 ag: 1; NPYLR7 ag max-min: -10

What do the screens show for `O=C(c1ccc2nonc2c1)N1CCC(n2c(=O)oc3ccc(Cl)cc32)CC1`?
NPYLR7 ag: 5; NPYLR7 ag max-min: 0

How did CCc1nc(N2CCN(C(=O)c3cccc(C(F)(F)F)c3)CC2)c2c3c(sc2n1)CN(CC)CC3 do in these assays?
NPYLR7 ag: -1; NPYLR7 ag max-min: 1

How did CCc1ccc(C(=O)Nc2nnc(SCc3ccc(F)cc3F)s2)cc1 do in these assays?
NPYLR7 ag: 22; NPYLR7 ag max-min: 21

How did CCc1c(C)[nH]n(-c2nc3ccccc3[nH]2)c1=O do in these assays?
NPYLR7 ag: -18; NPYLR7 ag max-min: -31

Results for COc1ccccc1C(=O)Nc1cccc(N2CCC(NC3C4CC5CC3CC(O)(C5)C4)CC2)c1 (stereo not drawn) ?
NPYLR7 ag: 12; NPYLR7 ag max-min: 0

How did O=C(CN1CCC2(CC1)SCC1C(=O)N(c3ccccc3)C(=O)N12)Nc1ccccc1F (stereo not drawn) do in these assays?
NPYLR7 ag: 6; NPYLR7 ag max-min: 7

How did O=c1[nH]c(CSc2ncnc3sccc23)nc2sc3c(c12)CCCC3 do in these assays?
NPYLR7 ag: -4; NPYLR7 ag max-min: -3

What do the screens show for `COc1ccccc1-c1nc2c(C)cccn2c1NCc1ccccc1`?
NPYLR7 ag: 0; NPYLR7 ag max-min: 6

What do the screens show for `O=C(CCc1ccccc1)NCCn1ncc2c(N3CCCCCC3)ncnc21`?
NPYLR7 ag: 0; NPYLR7 ag max-min: -1

What do the screens show for `Cc1ccc(-c2ccc(=O)n(CCCNC(=O)Cc3ccc(F)cc3)n2)cc1`?
NPYLR7 ag: -2; NPYLR7 ag max-min: -4

Results for O=C(COc1ccc(Cl)cc1Cl)NCc1nnc(SCC(=O)Nc2nccs2)n1-c1cccc(Cl)c1 ?
NPYLR7 ag: -8; NPYLR7 ag max-min: -4

How did CN(C)c1nc2c(c(=O)[nH]1)CCN(C(=O)c1[nH]ncc1Cl)C2 do in these assays?
NPYLR7 ag: 4; NPYLR7 ag max-min: 1

How did COC(=O)C1CCN(C(c2ccccc2Cl)C2Sc3nc(C)nn3C2=O)CC1 (stereo not drawn) do in these assays?
NPYLR7 ag: 1; NPYLR7 ag max-min: -3

How did OCc1cccc(-c2ccnc3n[nH]c(-c4cccc(C(F)(F)F)c4)c23)c1 do in these assays?
NPYLR7 ag: 1; NPYLR7 ag max-min: 2

How did CN1CCN(C)C(c2n[nH]c(=S)n2-c2ccccc2Br)C1 (stereo not drawn) do in these assays?
NPYLR7 ag: -9; NPYLR7 ag max-min: -15

Results for Cc1cn2c3c(=O)n(CCN4CCOCC4)c(=O)n(C)c3nc2n1Cc1ccco1 ?
NPYLR7 ag: -9; NPYLR7 ag max-min: -7

How did CCOC(=O)N1CCC(=O)N(CCOC)C[C@H]2COc3ccccc3[C@H]21 do in these assays?
NPYLR7 ag: 0; NPYLR7 ag max-min: 8

What do the screens show for `CCCCSc1nc2c(c(=O)n(C)c(=O)n2C)n1Cc1cccc(C)c1`?
NPYLR7 ag: 11; NPYLR7 ag max-min: 5

What do the screens show for `Cn1cc(CN2CCN(c3cnccn3)CC2)c(-c2ccc(Oc3ccccc3)cc2)n1`?
NPYLR7 ag: 3; NPYLR7 ag max-min: 2

Results for COC(=O)c1sc(NC(=O)CSc2nncn2-c2ccccc2)c(C(=O)OC)c1C ?
NPYLR7 ag: 0; NPYLR7 ag max-min: 1

How did Cc1csc(SCC(=O)N2CCCC(CNS(=O)(=O)c3cccs3)C2)n1 (stereo not drawn) do in these assays?
NPYLR7 ag: 6; NPYLR7 ag max-min: 6

Results for CCCCc1ccc(N2C(=O)c3cccc4cccc(c34)C2=O)cc1 ?
NPYLR7 ag: 0; NPYLR7 ag max-min: -7

What do the screens show for `CC(O)C1CCN(c2cncc(Br)c2)CC1` (stereo not drawn)?
NPYLR7 ag: 3; NPYLR7 ag max-min: 1

What do the screens show for `COc1ccc(OC)c(-c2cc(Cl)c3c(c2)CC(CNC(=O)c2cccnc2C)O3)c1` (stereo not drawn)?
NPYLR7 ag: 19; NPYLR7 ag max-min: 15

How did CCN1CCN(Cc2cc(C(=O)N(C)Cc3ccsc3)no2)CC1 do in these assays?
NPYLR7 ag: 7; NPYLR7 ag max-min: 4

Results for O=C1CSC(c2ccsc2)N1CCO (stereo not drawn) ?
NPYLR7 ag: 0; NPYLR7 ag max-min: -5

Results for COC(=O)c1cc(-c2coc3cc(O)ccc3c2=O)c(C)o1 ?
NPYLR7 ag: 6; NPYLR7 ag max-min: 2

Results for Cn1nnnc1NCc1ccccc1C(F)(F)F ?
NPYLR7 ag: -2; NPYLR7 ag max-min: -4

Assay outcomes (PubChem)

A portion of the library, so the mix of outcomes need not match the whole.
